LANA-H2B inh – blocks KSHV LANA binding to histone H2A/H2B. Q9QR71. cell-free LANA-H2A/H2B peptide, fluorescence polarization. inhibition, % (no concentration beside the values). hit rate 0.6% among 320,000. AID 2629; in the data active means inhibition mostly above about 10%, no sharp cut-off; inactive means mostly below about 6.7%;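 further: stock transfer was 7.5 nL into about 10 µL; 0% = median of vehicle wells and 100% = median of positive control wells; one replicate is shown; the record names a cut of 25% in any replicate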
Target sequence (Q9QR71 whole entry, looked up): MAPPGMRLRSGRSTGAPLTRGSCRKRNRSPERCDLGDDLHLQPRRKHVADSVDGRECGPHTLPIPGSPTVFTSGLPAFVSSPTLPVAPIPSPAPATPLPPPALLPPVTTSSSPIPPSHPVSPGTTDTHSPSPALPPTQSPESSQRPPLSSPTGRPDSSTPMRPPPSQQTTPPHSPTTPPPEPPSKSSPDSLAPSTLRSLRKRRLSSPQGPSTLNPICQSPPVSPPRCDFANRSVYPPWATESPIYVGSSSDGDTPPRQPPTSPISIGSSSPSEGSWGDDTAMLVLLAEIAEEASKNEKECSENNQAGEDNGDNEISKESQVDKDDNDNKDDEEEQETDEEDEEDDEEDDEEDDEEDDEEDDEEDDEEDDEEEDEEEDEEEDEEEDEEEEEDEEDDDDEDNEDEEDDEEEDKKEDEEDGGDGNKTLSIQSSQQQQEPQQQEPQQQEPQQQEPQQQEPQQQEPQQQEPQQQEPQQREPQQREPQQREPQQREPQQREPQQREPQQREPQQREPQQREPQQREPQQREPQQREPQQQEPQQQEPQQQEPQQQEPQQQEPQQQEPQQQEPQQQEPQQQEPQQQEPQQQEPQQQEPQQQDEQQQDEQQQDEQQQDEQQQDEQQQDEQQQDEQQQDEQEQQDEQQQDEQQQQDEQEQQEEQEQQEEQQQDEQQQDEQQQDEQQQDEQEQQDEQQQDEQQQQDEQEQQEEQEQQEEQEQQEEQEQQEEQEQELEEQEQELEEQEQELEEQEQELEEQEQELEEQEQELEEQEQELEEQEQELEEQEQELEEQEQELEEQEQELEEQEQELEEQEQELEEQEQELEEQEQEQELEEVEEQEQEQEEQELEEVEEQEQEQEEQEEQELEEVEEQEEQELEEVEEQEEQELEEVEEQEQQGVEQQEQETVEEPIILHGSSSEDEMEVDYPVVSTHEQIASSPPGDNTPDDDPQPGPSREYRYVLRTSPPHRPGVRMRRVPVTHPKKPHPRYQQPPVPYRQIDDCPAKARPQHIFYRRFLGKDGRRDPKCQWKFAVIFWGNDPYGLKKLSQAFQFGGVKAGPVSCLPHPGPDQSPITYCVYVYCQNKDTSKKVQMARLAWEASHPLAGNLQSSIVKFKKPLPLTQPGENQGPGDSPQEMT
Ecoli rRNA inh – selective bacterial rRNA inhibition in E. coli; hit rate 1.6% among 350,000; E. coli WT GFP vs humanized-ribosome RFP mutants, fluorescence, 24 h; active compounds read low; DMSO median 0, no signal -100; GFP signal change (wild-type ribosome), % (test concentration not listed);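 active means significant combined selectivity score with lowered wild-type GFP, culture density cut under 30%, mutant RFP and density less affected; inactive means any of these conditions unmet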; further: one replicate is shown; some compounds called inactive have numbers as strong as hits
Beta2AR agonist – agonists of human beta-2 adrenergic receptor inducing internalization. P07550. Am2.2-beta2AR cells, FAP receptor internalization, flow cytometry; reference of the scale not given here. response, % (no concentration beside the values). hit rate 0.43% among 340,000. AID 504454;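 active means response above a set limit, near 3 SD of response in nonfluorescent compounds, cut at about 42% in these data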;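 further: stock transfer was 100 nL into about 11 µL; a reference agonist was the positive control; negative values mostly stem from fluorescent compounds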
Bfl-1 A1 inh – inhibitors of the anti-apoptotic protein A1, read as caspase activation. MEF A1-2A-BIM cells, Caspase-Glo 3/7 luminescence, 3 h; percent of clofoctol response, vehicle zero. caspase activation, % (test concentration not listed). hit rate 0.066% among 330,000. AID 2462;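 active means over half of replicate activation scores above 10%, or exactly half above 10 with the replicate mean above 10; inconclusive means replicate mean below 10 yet half the replicates above 10; inactive means over half of replicates below 10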;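 further: wells of about 30 µL received 50 nL stock; many hits fall short of the cut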
ALR inh – human ALR oxidase inhibition via reduced H2O2; P55789; purified ALR, DTT oxidation, H2O2 HRP-luminol luminescence; inhibition, % (no concentration beside the values); hit rate 3.8% among 290,000; AID 485317;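 active means mean and each replicate at 75% or more; inconclusive means only one of the two met; inactive means neither met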;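 further: stock transfer was 7.5 nL into about 7.5 µL; 0% = neutral wells and 100% = wells with inactivated enzyme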
Calb FLC – C. albicans growth modulation with fluconazole; C. albicans CaCi-2 (fluconazole-resistant clinical isolate) + fluconazole, Alamar Blue growth, 48 h; growth inhibition, % (concentration not given with the values); hit rate 0.57% among 300,000;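 active means most replicates above 75%; inconclusive means exactly half above 75%; inactive means most below 75%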;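 further: all wells also contain fluconazole at 8 µg/ml as a sub-toxic cotreatment; 0% = median of DMSO wells and 100% = median of geldanamycin control wells; wells of about 8 µL received 7.5 nL stock; the first replicate is given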
T cruzi inh – T. cruzi replication inhibition; inhibition, % (concentration not given with the values); T. cruzi beta-gal in NIH3T3, luminescence, 90 h; hit rate 1.4% among 300,000; AID 1885;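 active means mean inhibition across valid replicates above about 55%, limit read from the data; inconclusive means mean below that limit but half or more replicates reach it; inactive means mean below it, under half of replicates reach it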;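 further: signal also drops with host cell toxicity which is not excluded here; 0% = plate median of DMSO wells and 100% = zero luminescence signal; higher percent means less beta-gal luminescence so fewer parasites; stock transfer was 50 nL into about 50 µL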
Beta apoptosis – blocks beta cell apoptosis; INS-1E cytokine-induced death, ATP luminescence, 48 h; percent of positive-control rescue, neutral wells zero; protection from apoptosis, % (test concentration not listed); hit rate 0.8% among 300,000; AID 435005;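 active means all replicates at 75% or more, or half of them and the mean; inconclusive means half reach 75% but not the mean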;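 further: 0% = cytokine-treated negative control wells and 100% = positive control rescue; higher means more ATP so stronger rescue from cytokine killing; wells of about 40 µL received 100 nL stock; the first replicate is given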
Ecoli rRNA inh OD600 – further read-out of Ecoli rRNA inh, marked with its call; OD600 change, %; measured here: OD600 growth;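 optical density of the mix in the first replicate; 0 = DMSO median and -100 = no signal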
Ecoli rRNA inh RFP – further read-out of Ecoli rRNA inh, marked with its call; RFP signal change, %; measured here: RFP humanized mutant strains;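 first replicate; 0 = DMSO median and -100 = no signal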
* hit, by the source's call; ? = inconclusive; . = not tested or not shown.

SMILES	LANA-H2B inh	Ecoli rRNA inh	Ecoli rRNA inh OD600	Ecoli rRNA inh RFP	Beta2AR agonist	Bfl-1 A1 inh	ALR inh	Calb FLC	T cruzi inh	Beta apoptosis
COc1cc(C(=O)OCC(C)=O)ccc1OCc1c(C)noc1C	.	13	3	0.6	-6	.	.	39	0	.
CCCNC(=O)[C@H](C)NC(=O)c1ccc(Br)cc1	4.2	0	1	-4.0	2	-0.1	10	-4	-19	-1
O=C1CCNCCN1[C@H](CO)Cc1ccccc1	0.3	15	21	16	-1	-0.5	-4	-19	17	-1
CSc1ccc(CN(C)C(=O)COc2ccc(C(=O)c3ccccc3)cc2)cc1	2.7	-10	-21	-1.0	20	-3.1	1	-8	6	-13
O=C(/C=C/Sc1ccccc1)c1ccc(Cl)cc1	-1.8	.	.	.	11	0.2	-20	17	43	-5
CCCn1c(=O)c2ccccc2n2c(SCc3cc(=O)oc4ccc5ccccc5c34)nnc12	1.3	.	.	.	-5	0.1	-13	14	14	4
COc1ccc(-n2c(C)cc(/C=C3/SC(=S)N(C)C3=O)c2C)cc1	-4.7	.	.	.	-249	-5.1	-10	-11	-16	-3
COc1ccc(-c2ccc(-c3nc4c(c(=O)[nH]c(=O)n4Cc4ccccc4)n3C)o2)c([N+](=O)[O-])c1	-3.3	.	.	.	-13	-1.8	-12	5	14	0
CCc1nnc(NC(=O)c2ccc3ncsc3c2)s1	5.6	9	4	-0.4	-3	-0.2	-29	-13	-3	-8
CSC1=C(C#N)C(c2ccc(C)s2)CC(=O)N1 (stereo unspecified)	1.1	.	.	.	-3	0.2	-26	25	10	-6
O=C(c1ccco1)N1CCN(C2=NS(=O)(=O)c3ccccc32)CC1	0.7	.	.	.	-6	0.4	1	-5	-22	4
COc1cc(OC)cc(C(=O)N[C@H](C(=O)NC2CCCc3ccccc32)C(C)C)c1 (stereo partly specified)	-2.6	2	12	-3.8	-9	-0.6	-4	.	.	-5
Cc1[nH]c(=O)c(C(=O)c2cc(Cl)ccc2O)cc1C(=O)O	-0.3	-3	-2	-1.5	6	0.6	1	-10	-2	.
O=C(NS(=O)(=O)Oc1ccc(Cl)cc1)OC[C@@H]1CCCN2CCCC[C@H]12	2.8	18	11	-4.7	-3	1.0	-4	-6	-16	-7
COCCCNC(=O)c1ccc(C(=O)NCCCOC)cc1	-0.6	.	.	.	-6	0.8	-3	2	-6	0
O=C(CN1CCN(C(=O)c2ccco2)CC1)Nc1cccc(S(=O)(=O)N2CCCC2)c1	-0.1	19	5	1.9	1	-0.1	-1	.	.	-3
COc1ccc(C2(C)CC(C)(C)Nc3ccccc32)cc1 (stereo unspecified)	2.1	-29*	-16*	2.0*	7	0.9	48	-2	-2	-3
CC1CCN(S(=O)(=O)c2ccc(C(=O)N3CCCC(C(F)(F)F)C3)cc2)CC1 (stereo unspecified)	9.3	-1	3	-1.0	3	1.1	19	5	-3	7
CCNC(=S)N(CCc1c(C)[nH]c2ccccc12)Cc1cccnc1	-1.6	2	-11	-11	29	0.5	10	.	48	-7
CCOc1ccc(-n2c(SCC(=O)NC(C)CC)nc3n[nH]c(C)c3c2=N)cc1 (stereo unspecified)	-1.8	.	.	.	-3	0.8	.	5	6	.
Cc1cccc(C)c1NC(=O)CNC(=O)c1ccc(N2CCCC2=O)cc1	-0.5	20	12	1.3	-2	0.3	-9	.	.	2
CC(=O)c1c(C)n([O-])c2cc(C)ccc2[n+]1=O	-4.0	.	.	.	-6	0.5	-6	5	-2	2
COc1ccc(CN2C(=O)N(c3ccc(OC)cc3)C(=O)C2CC(=O)Nc2ccccc2)cc1 (stereo unspecified)	1.8	-2	6	-5.1	10	-0.4	-4	-3	9	1
CC(C)c1nc2oc3c(NCCO)ncnc3c2c2c1COC(C)(C)C2	-16	-1	10	2.0	5	-0.7	-35	-4	1	-16
CSc1ncc(Cl)c(C(=O)Nc2cccc3ccccc23)n1	-2.4	8	7	0.3	10	-0.3	37	4	10	4
COC(=O)C1=C(C)NC2=C(C(=O)CCC2)C1c1ccc(-c2ccsc2C(=O)OC)o1 (stereo unspecified)	0.4	-24*	6.1*	5.1*	16	0.1	-18	-5	4	-3
O=C(Cc1cc(=O)oc2cc(O)ccc12)NC(Cc1ccc(Cl)cc1)C(=O)O (stereo unspecified)	3.4	3	12	1.0	-6	0.1	.	5	-16	0
Cc1cccnc1NC(=O)c1ccc(NS(=O)(=O)/C=C/c2ccccc2)cc1	-0.9	-3	0	-1.8	14	0.7	4	-9	-2	-1
CCOC(=O)c1c(NC(=O)CSc2nccc(=O)[nH]2)sc(C)c1C	-0.2	1	0	0.5	11	0.1	4	35	-5	8
O=C(CNc1ccc2c(c1)OCO2)N/N=C\c1cn(Cc2ccccc2)c2ccccc12	-6.4	.	.	.	9	-0.2	-10	-23	15	-5
CCNc1nc(NCC)n2c(SCC(=O)Nc3ccc(F)cc3)nnc2n1	3.7	0	-3	-1.6	-2	0.4	11	-2	-1	-2
Cc1cc(-c2ccccc2)n2nc(C)c(-c3ccccc3)c2n1	-3.3	.	.	.	-4	0.2	0	5	32	9
O=Cc1cccc(OC(=O)c2ccc(Cl)cc2Cl)c1	2.3	.	.	.	.	3.2	-40	6	30	-8
O=C(NCCCCc1ccccc1)C12CN(Cc3ccccc3)CC1C(c1ccc([N+](=O)[O-])cc1)=NO2 (stereo unspecified)	6.3	11	11	-1.0	0	-0.1	-4	-2	44	33
CS(=O)(=O)N(Cc1ccc(C(=O)NCc2ccco2)cc1)c1ccccc1	1.9	.	.	.	-14	-0.1	-11	2	-3	-4
O=C(Nc1nnc(S(=O)(=O)N2CCCC2)s1)c1ccccc1Cl	-2.8	-19	-27	-5.2	6	-0.2	.	-6	8	-5
O=C(NCc1csc(-c2cccs2)n1)c1cccc(Cl)c1	-2.6	-18	-15	2.1	-15	-0.6	-7	20	.	-5
CCOC(=O)C1CCN(S(=O)(=O)c2cccc(-c3cn4cccnc4n3)c2)CC1	-5.4	.	.	.	-3	0.1	98*	10	17	3
O=C1CCCN1C(=O)COc1cc(F)ccc1[N+](=O)[O-]	2.2	2	2	2.6	9	0.0	-1	.	.	-8
NCCCC[C@H]1CNC(=O)C(=O)N1CCc1cccc2ccccc12	-3.2	14	17	-2.8	2	0.5	-26	2	0	-4
Cc1ccc(S(=O)(=O)c2nc(NCCCn3ccnc3)sc2Cl)cc1	1.4	.	.	.	-5	0.8	-10	-7	20	-3
CC(C)NC(=O)COc1ccc(OCc2ccccc2)cc1	-0.5	-2	0	-1.4	2	-2.7	4	?	-5	5
COc1ccccc1CCC(=O)Nc1ccc(S(=O)(=O)Nc2nccs2)cc1	-48	-1	2	4.8	5	?	12	-7	-9	2
O=C1C=C(c2ccc(C(=O)O)cc2)C[C@@H](c2ccc(F)cc2)C1	1.2	-27	-46	-11	2	-1.5	2	.	.	4
COc1cc(/C=N/NC(=O)CSc2n[nH]c(=O)[nH]c2=O)cc(OC)c1O	-3.5	16	17	-1.1	4	-0.5	98*	10	-17	-3
Cc1cccc2sc(NC(=O)CN3C(=O)NC4(CCCC4)C3=O)nc12	1.3	-12	-14	-1.4	4	-0.8	0	2	-4	-9
Cc1cccc(C(=O)Oc2ccccc2C(=O)N2CCOCC2)c1	0.4	-5	0	-0.1	7	0.2	-4	0	10	4
COc1ccc(NC(=O)CCC2COc3ccccc3O2)c(OC)c1 (stereo unspecified)	3.1	.	.	.	5	0.4	-7	-1	13	1
COc1cccc(NC(=O)CSc2nc3ccccc3c(=O)n2CCCC(=O)NCCCN2CCOCC2)c1	-2.8	2	-3	6.6	-15	-0.4	.	-1	7	-3
O=C(CNC(=S)N(CCCN1CCOCC1)Cc1cccs1)N1CCOCC1	4.0	.	.	.	-2	-0.4	-3	1	-16	-2
Cc1ccccc1S(=O)(=O)N1[C@@H](c2ccc(Cl)cc2)C(C(=O)O)=CC[C@H]1c1ccc(Cl)cc1	60*	-35	-54	-5.3	5	0.8	14	.	.	6
O=Cc1cc(-c2ccccc2)[nH]c1-c1ccccc1	7.3	26	15	1.7	-2	0.5	3	35	-10	5
CCOc1ccc(C(C)=O)cc1CN1C(=O)c2ccccc2S1(=O)=O	5.0	-11	-21	5.1	-4	0.4	.	-3	11	2
CC1(C)CC(=O)C(C=NCCCN2CCCC2=O)=C(O)C1	7.2	.	.	.	0	2.6	-5	1	-5	-7
COc1ccc(C(CNC(=O)c2cc3c(s2)CCC(C)C3)N2CCCC2)cc1 (stereo unspecified)	-0.6	-8	-30	11	17	2.0	-18	.	.	8
COc1cc2cc(CCOC(=O)c3ccc(C(F)(F)F)cc3)oc(=O)c2cc1OC	1.7	.	.	.	-7	-1.3	-6	.	.	0
CS(=O)(=O)N(CCc1ccccc1)CC(=O)Nc1ccccc1	-1.2	7	3	-7.2	-2	0.0	-4	1	1	-5
CC(CO)(CO)NCc1ccc(-c2ccccc2)cc1	.	.	.	.	-7	0.4	.	25	13	-7
Cc1ccc(NC(=S)N(CCN(C)C)C(C)c2cccnc2)cc1 (stereo unspecified)	-0.3	19	10	1.3	-4	0.1	-3	1	27	-3
Clc1c(Cl)c(Cl)c2n[nH]nc2c1Cl	1.9	-53*	-23*	-16*	-2	-0.8	6	45	-40	-3

(listing goes on)
SMILES	LANA-H2B inh	Ecoli rRNA inh	Ecoli rRNA inh OD600	Ecoli rRNA inh RFP	Beta2AR agonist	Bfl-1 A1 inh	ALR inh	Calb FLC	T cruzi inh	Beta apoptosis
O=C(CSc1ccc(Br)cc1)NC1CCCCCC1	-0.4	0	-9	-2.2	-8	0.0	.	.	.	-1
CCc1ccc(-c2nc(CS(=O)CC(=O)NC3CCCCCC3)c(C)o2)cc1 (stereo unspecified)	0.3	-1	-11	-0.4	-1	0.4	99*	-5	-2	-3
CCc1ccccc1NC(=O)CNC(=O)c1n[nH]c(=O)c2ccccc12	7.0	6	16	0.2	5	-1.0	-1	.	.	-9
CCOC(=O)N1CCN(Cc2nc(N)nc(Nc3ccc(OC)cc3)n2)CC1	3.8	9	-3	-1.8	11	0.1	-8	46	-13	-9
COC(=O)Cc1cc(=O)n2[nH]c(C)nc2n1	2.7	.	.	.	-2	0.7	7	3	-13	-7
CCCc1nnc(NC(=O)CCC(=O)O)s1	3.4	13	13	2.0	11	0.2	2	2	-3	-6
COc1ccccc1-c1cc(C(=O)NCc2ccco2)no1	-6.3	.	.	.	6	0.0	6	-25	3	-4
Cc1ncc([N+](=O)[O-])n1Cc1ccccc1	-0.3	8	4	7.3	-1	-0.2	-6	-2	-7	-3
CCOC(=O)C(Sc1nnc2c3ccccc3n(CC)c2n1)C(=O)OCC	-3.8	.	.	.	-3	-0.2	15	14	11	-6
COc1cccc(CNC(=O)CNC(=O)c2cccs2)c1	-10	10	12	-2.1	-5	1.8	-1	4	-11	-3

This is a subset. The share of hits here may be higher or lower than overall.
